Screens: PubChem, several laboratories
HIV Env fusion: blocks HIV Env-driven cell-cell fusion. HeLa-JRFL Env/CEM21 cell fusion, luciferase. inhibition, % at 12.3 µM. 1.1% of 360,000 active. AID 651610;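 active means mean replicate inhibition score of at least 50 and every replicate individually at or above 50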;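 further: 0% = plate neutral controls and 100% = maraviroc near 300 nM; one replicate is shown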
Rce1 inhib: inhibitors of yeast Ras-converting enzyme; Q03530; calls only; 0.27% of 290,000 active; AID 2563; yeast membranes, quenched prenylated peptide cleavage fluorescence;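 active means fall in fluorescence gain of 50% or more versus controls, with final raw signal at or below 3038400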;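 further: plate controls were neutral control wells for no effect and wells lacking membranes for full effect; tested at 10 µM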
eIF4H FP inh: inhibitors of RNA binding by human eIF4H | inhibition, % at 35 µM | eIF4H fluorescence polarization binding assay | Q15056 | AID 2012 | 0.94% of 290,000 active;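 active means 50% or more with normal probe brightness, or confirmed in later tests; about a fifth of its hits are not listed in these tables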;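 further: calls also rest on retests at 20 µM and on dose response follow-up; 0% = protein and probe with vehicle and 100% = probe without protein; strong numbers were not always called active; many hits fall short of the cut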
CSC inhib: blocks cancer stem cells; 1.1% of 300,000 active; AID 2717; inhibition, % at 7.5 µM; cancer stem cell-like cells viability, luminescence;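 active means mean at 75% or more and at least half the replicates too; tested in HMLE shEcad cells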;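 further: 0% = median of negative and 100% = median of positive control wells; the first replicate is given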
UUG fidelity: modulators of start codon recognition fidelity in yeast; S. cerevisiae UUG-firefly luciferase reporter, luminescence/redox ratio; activity score, % at 18.7 µM; 0.13% of 350,000 active;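 active means replicate mean at a twofold rise or more, about +100% in these data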;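 further: firefly luciferase made from a UUG start codon reports start codon fidelity; reporter light over untreated wells divided by growth signal over untreated wells; some hits fall short of that in this replicate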
PABP polyA inh: PABP-poly(A) binding inhibition; AID 2014; PABP-poly(A) RNA binding, fluorescence polarization; inhibition, % at 35 µM; P11940; 1% of 290,000 active;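 active means 50% or more with normal probe brightness, or confirmed in later tests; about a fifth of its hits are not listed in these tables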;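 further: calls also rest on retests at 20 µM and on dose response follow-up; controls were probe without protein and protein plus probe with vehicle; some compounds called inactive have numbers as strong as hits; many hits fall short of the cut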
Target sequence (P11940 whole entry, looked up): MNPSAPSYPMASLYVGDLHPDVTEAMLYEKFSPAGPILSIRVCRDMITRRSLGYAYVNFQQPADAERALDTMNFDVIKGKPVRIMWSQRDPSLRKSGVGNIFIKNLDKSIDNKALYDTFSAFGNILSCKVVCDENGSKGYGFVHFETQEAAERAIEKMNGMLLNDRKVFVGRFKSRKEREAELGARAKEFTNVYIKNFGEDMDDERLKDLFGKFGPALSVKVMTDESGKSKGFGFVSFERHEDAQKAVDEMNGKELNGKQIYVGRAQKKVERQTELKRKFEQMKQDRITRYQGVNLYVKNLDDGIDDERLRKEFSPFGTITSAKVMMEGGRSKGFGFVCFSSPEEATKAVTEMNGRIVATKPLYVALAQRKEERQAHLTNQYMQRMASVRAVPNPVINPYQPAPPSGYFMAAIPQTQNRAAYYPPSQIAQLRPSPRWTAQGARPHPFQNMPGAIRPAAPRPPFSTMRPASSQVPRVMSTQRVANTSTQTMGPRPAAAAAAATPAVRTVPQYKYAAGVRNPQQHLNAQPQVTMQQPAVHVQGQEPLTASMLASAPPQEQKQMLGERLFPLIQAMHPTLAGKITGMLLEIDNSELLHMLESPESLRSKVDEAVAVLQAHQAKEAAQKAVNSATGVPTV
MT1-MMP act inh: MT1-MMP (human) activation inhibition | HT1080 RFP-PRO-GFP cells, GFP/RFP ratio fluorescence, overnight; percent of plate control window, DMSO zero | GFP/RFP ratio change, % at 20 µM | 0.061% of 360,000 active | AID 651647;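 active means GFP/RFP ratio change of at least 30% with cell ATP level not reduced by more than half and red fluorescence within 50% of control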; further: strong numbers were not always called active
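Test system: HT1080 RFP-PRO-GFP cells; Benchmarks: DMSO and RFP-L50D-GFP cell wells; Timing: cells overnight before dosing, compound overnight, 37 °C, 5% CO2; Compound: one 20 µM compound dose with 1% DMSO; Read-out: GFP/RFP fluorescence ratio.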
MT1-MMP act inh RFP: also measured in MT1-MMP act inh; calls as there; RFP signal change, %; measured here: RFP expression control read;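 0 = vehicle wells; hits needed this value within 50% of zero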
The depositor's hits bear a star; i = inactive; x = not tested or not shown. The list is partial, so the mix of outcomes need not match the whole.

SMILES	HIV Env fusion	Rce1 inhib	eIF4H FP inh	CSC inhib	UUG fidelity	PABP polyA inh	MT1-MMP act inh	MT1-MMP act inh RFP
CC(NC(=O)CCc1ccccc1)c1ccc2c(c1)OCO2 (stereo not given)	1	i	-2	x	-16	0	-5	-3
COc1cccc(NC(=O)COC(=O)c2ccc3ccccc3n2)c1	14	x	x	-12	x	x	0	-1
CC(=O)Nc1ccc(S(=O)(=O)NNc2ccc([N+](=O)[O-])cc2)cc1	4	i	-10	-4	-13	-2	6	-3
Cc1ccc(NC(=O)c2cnccn2)cc1	-33	i	-5	5	x	5	2	0
c1ccc(-c2ccccc2OCCCN2CCCCC2)cc1	-28	i	1	4	-8	11	3	0
COC(=O)c1cnc(NNS(=O)(=O)c2ccc(Cl)cc2)nc1C(F)(F)F	16	i	-11	-9	-13	-15	1	5
COc1cccc(C(=O)n2ccc(-c3cccs3)n2)c1	5	i	2	-7	-19	-4	8	3
CC(=O)Nc1nnc(SCc2cc(=O)c(OC(=O)c3ccccc3)co2)s1	2	i	-1	2	x	-6	3	5
NC(=O)c1ccc(Sc2nnc(-c3cccs3)n2CC2CCCO2)c([N+](=O)[O-])c1 (stereo not given)	-2	i	-6	-17	-8	3	-4	2
Cc1ccc(C(C(=O)NC2CCCC2)N(C(=O)Cc2cccs2)c2ccc(C)c(C)c2)o1 (stereo not given)	46	x	-1	33	-10	-6	-44	-24
COc1cc(C(=O)O)ccc1OCc1ccncc1	12	i	21	0	0	29	-6	1
COCc1cc(=O)n2[nH]c(C)nc2n1	-54	i	-1	-11	-21	-4	-3	-1
Cc1c(CCC(=O)O)c(=O)oc2cc(OCc3ccccc3Br)ccc12	-1	i	0	0	-19	17	5	4
O=C(Nc1ccncc1)c1c(F)cccc1F	x	i	-3	23	-18	-9	-25	-16
Cn1c(C(=O)N2CCC(C(=O)N3CCN(Cc4ccc5c(c4)OCO5)CC3)CC2)cc2sccc21	-32	i	-9	-1	-11	7	-1	-10
O=C1CC(SC2=NCCS2)C(=O)N1c1ccc(Cl)cc1 (stereo not given)	-12	i	-4	14	x	-2	3	2
CCCNC(=O)COC(=O)/C=C/c1ccc(C)o1	0	i	-3	-6	x	-3	-2	2
O=C(COc1cccc2ccccc12)NNC(=O)c1cccs1	x	i	-2	-7	-28	-4	0	2
CCOC(=O)C(NC(=O)CC)(Nc1ccc(S(=O)(=O)Nc2cc(C)on2)cc1)C(F)(F)F (stereo not given)	-64	i	-10	-10	-9	-9	0	1
Cc1ccc(C(=O)N/N=C\c2cc3c(cc2Br)OCO3)s1	-363	i	-4	2	x	-1	-1	-2
CCOC(=O)C1CCCN(CC(=O)Nc2nc(-c3ccccc3)cs2)C1 (stereo not given)	7	i	4	-12	-1	8	-3	-4
COc1ccc2cc(C(=O)C3CCCN(Cc4cccc(C)n4)C3)ccc2c1 (stereo not given)	-13	i	11	-7	-9	-6	5	-1
CCCOC(=O)C(C)n1cnc2scc(-c3ccc(C)cc3)c2c1=O (stereo not given)	0	i	-4	5	-11	-5	-1	0
CN(C(=O)C(=O)c1cn(CC(=O)N2CCCC2)c2ccccc12)C1CCCCC1	16	i	-6	-5	-5	1	-2	0
N#Cc1ccc(CSc2nnc(NC(=O)CCc3nc4ccccc4c(=O)[nH]3)s2)cc1	2	i	x	-10	-24	x	-2	-3
CCOC(=O)CSc1nnc2n(C3CCCCC3)c(=O)c3c4c(sc3n12)CCCC4	x	i	-4	1	-8	-4	1	-8
CC(C(=O)c1ccc(-c2ccccc2)cc1)[n+]1cccc(C(N)=O)c1 (stereo not given)	-7	i	-2	0	-2	-9	-3	-1
O=c1[nH]c2ccc(Cl)cc2c(-c2ccccc2)c1SC(=S)N1CCCCC1	x	i	0	28	x	-2	2	-6
CNC(=O)COc1ncnc2scc(-c3ccc(F)cc3)c12	0	i	-6	-4	x	8	1	6
N#CC1=C(SCc2ccc(C#N)cc2)N=C(N)C(c2nc(-c3ccccc3)cs2)C12CCCCC2 (stereo not given)	x	i	-13	6	x	0	-20	-24
COC(=O)c1cc(Cc2ccc(N)c(C(=O)OC)c2)ccc1N	-20	i	-2	-2	-20	10	2	-9
COc1cccc(OC)c1C(=O)Nc1cccc(S(=O)(=O)Nc2ccccc2Cl)c1	x	x	x	16	3	x	-5	-9
COc1ccc(S(=O)(=O)N2CCN(C(=O)c3cc(C)nc4ccccc34)CC2)cc1OC	x	x	x	-8	-9	x	1	1
CCC/C(O)=C1\C(=O)CC(C)(C)CC1=Nc1cccc([N+](=O)[O-])c1	5	i	6	-11	4	-3	-3	-3
COc1ccc(NC(=O)c2cc([N+](=O)[O-])ccc2N2CCCC2)cc1	29	i	-14	7	x	7	6	0
COc1ccc(S(=O)(=O)N2CCCC2C(=O)Nc2ccc(C(C)=O)cc2)cc1 (stereo not given)	6	i	-10	-7	5	-6	-1	3
O=C(OCc1cc(=O)n2c(n1)sc1ccccc12)c1ccc2c(=O)n3c(nc2c1)CCC3	-46	i	75*	2	0	52*	-3	-2
CCCCCC(=O)NC(Nc1ccc(S(N)(=O)=O)cc1)C(Cl)(Cl)Cl (stereo not given)	-14	i	-12	-7	-7	0	5	2
CCN(CC)S(=O)(=O)c1ccc(C(=O)N2CCCCC2)cc1	-14	i	-10	-6	-14	-11	0	1
O=C(NC(=S)Nc1ccc2c(c1)OCCO2)c1ccco1	-201	i	-6	1	-55	-5	-2	1
c1ccc2nc(N3CCOCC3)c(N3CCOCC3)nc2c1	x	i	3	-21	-12	-1	-3	-4
Nc1nnc(CSCc2ccc(Cl)cc2)s1	18	i	-1	-23	-11	0	3	6
O=C(N/N=C/c1ccc([N+](=O)[O-])s1)c1cccc(Br)c1	66*	i	41	16	-6	6	-6	2
O=S(=O)(CC(c1ccccc1)N1CCCCC1)c1ccc(Cl)cc1 (stereo not given)	-6	i	5	-3	-6	8	-1	-2
O=C(COc1ccc(Cl)cc1Cl)Nc1ccc(S(=O)(=O)NC2=NCCCCC2)cc1	8	i	-6	-3	-7	-2	4	4
COc1cc(S(=O)(=O)N2CCCCC2)c(OC)cc1Br	0	i	0	59	x	-12	-6	-6
Fc1ccc(CN2CCCCCC2)c(F)c1	-20	x	-10	-5	-17	5	3	2
Brc1ccccc1-n1nnc(-c2nccs2)n1	-110	i	-2	-2	-28	6	1	4
COc1ccc(CN(C)C(=O)Cn2cnc(C(=O)Nc3ccc(C)c(C)c3)n2)cc1OC	0	x	x	x	-13	x	3	-2
COc1cccc(Nc2nnc(SCC(=O)N3CC(C)OC(C)C3)s2)c1 (stereo not given)	x	x	6	-10	-13	-4	-4	-1
CCc1cc(=O)[nH]c(SCC(=O)NCC2CCCO2)n1 (stereo not given)	-7	i	x	-8	-13	x	1	5
Cc1cn([C@H]2C[C@H](O)[C@@H](CNC(=O)c3ccccn3)O2)c(=O)[nH]c1=O	18	x	x	x	0	x	-1	4
OC1CCN(C(=S)NCCc2ccccc2)CC1	-85	i	-10	0	-37	1	-3	-2
Cc1nccn1CCN(C)Cc1cn(Cc2ccccc2)nc1-c1ccc2c(c1)OCO2	18	i	-8	-8	x	2	-2	0
Cc1ccc(C(=O)NC2CCCC(C)C2C)cc1S(=O)(=O)N1CCCCC1 (stereo not given)	x	i	x	19	x	x	2	-13
COc1cc2cnc(Cl)nc2cc1OC	-5	i	3	16	-10	-1	3	4
CC(=O)c1ccc(NC(=O)CN2C(=O)COc3ccc(S(=O)(=O)N4CCCC4)cc32)cc1	-10	i	-11	-10	8	5	2	3
COc1ccc(N2C(=O)/C(=C\c3ccco3)N=C2SCC(=O)N(C(C)C)C(C)C)cc1Cl	21	i	27	2	1	13	-12	-10
COc1ccc(OCc2nnc(SCC(=O)NC3CC3)n2C)cc1	5	i	-4	-7	-13	-1	-1	1
CC(=O)c1ccc(-c2cnc3c(NC=O)cc(-c4cnn(C)c4)cn23)cc1	-52	x	x	x	5	x	-13	7

In the list so far, these contain an aryl thioether with sulfur outside any ring.
SMILES	HIV Env fusion	Rce1 inhib	eIF4H FP inh	CSC inhib	UUG fidelity	PABP polyA inh	MT1-MMP act inh	MT1-MMP act inh RFP
CC(=O)Nc1nnc(SCc2cc(=O)c(OC(=O)c3ccccc3)co2)s1	2	i	-1	2	x	-6	3	5
NC(=O)c1ccc(Sc2nnc(-c3cccs3)n2CC2CCCO2)c([N+](=O)[O-])c1 (stereo not given)	-2	i	-6	-17	-8	3	-4	2
N#Cc1ccc(CSc2nnc(NC(=O)CCc3nc4ccccc4c(=O)[nH]3)s2)cc1	2	i	x	-10	-24	x	-2	-3
CCOC(=O)CSc1nnc2n(C3CCCCC3)c(=O)c3c4c(sc3n12)CCCC4	x	i	-4	1	-8	-4	1	-8
COc1cccc(Nc2nnc(SCC(=O)N3CC(C)OC(C)C3)s2)c1 (stereo not given)	x	x	6	-10	-13	-4	-4	-1
CCc1cc(=O)[nH]c(SCC(=O)NCC2CCCO2)n1 (stereo not given)	-7	i	x	-8	-13	x	1	5
COc1ccc(OCc2nnc(SCC(=O)NC3CC3)n2C)cc1	5	i	-4	-7	-13	-1	-1	1

The results go on.
SMILES	HIV Env fusion	Rce1 inhib	eIF4H FP inh	CSC inhib	UUG fidelity	PABP polyA inh	MT1-MMP act inh	MT1-MMP act inh RFP
O=C(COC(=O)c1ccc(Br)o1)NCCc1ccccc1	5	i	4	-4	x	6	-1	2
OCC[C@H]1C[C@H](O)[C@@H](O)[C@@]2(CCCO2)O1	-9	i	x	-3	-13	x	3	2
Cc1occc1C(=O)N(C)Cc1nc(-c2ccc(Cl)cc2)no1	8	i	5	18	-7	5	-2	-10
O=C(COC(=O)Cc1ccccc1[N+](=O)[O-])NCC1CCCCC1	15	i	2	-4	x	-7	1	2
Nc1cc(Cl)ccc1C(=O)OCC(=O)NC1CCCCC1	-3	i	-2	8	x	0	1	1
N#Cc1ccc(C(=O)Nc2ccc(N3CCN(C(=O)c4ccco4)CC3)cc2)c(F)c1	21	i	-3	-4	-16	-1	-1	-1
O=C(CCNC(=O)c1ccc(Br)cc1)NNC(=O)C1COc2ccccc2O1 (stereo not given)	-3	i	x	-7	-17	x	0	-1
COc1ccc(CN2C(=NC(=O)CCC3CCCC3)SC3CS(=O)(=O)CC32)cc1 (stereo not given)	10	i	0	-9	-11	1	-2	2
C=CCn1c(SCC(=O)Nc2ccccc2OC)nc2c([nH]c3ccccc32)c1=O	63*	i	-12	5	-12	9	-3	-2
CCN1CCN(c2nc3c(C)cccn3c(=O)c2C=C(C#N)C#N)CC1	-1	i	30	-12	-11	16	-6	2
CCCCn1c(SCC(=O)NCc2ccco2)nnc1-c1ccco1	-8	i	0	-16	-1	-4	-1	-3
CCc1ccccc1NC(=O)CNC(=O)CNC(=O)c1cccs1	-1	x	x	-7	-20	x	-1	-2
Cc1ccc(NC(=O)CN(c2ccccc2F)S(C)(=O)=O)cc1	x	i	1	-9	-9	2	-1	4
COc1ccc(N2CCN(C(=O)c3ccncc3)CC2)cc1	3	i	3	x	-15	7	4	3
CCc1ccc(-c2cc(C)no2)cc1S(=O)(=O)NCCc1ccc(OC)c(OC)c1	4	i	-12	21	x	5	-5	-5
O=C(CCN1C(=O)c2ccccc2C1=O)Nc1ccccn1	x	i	4	-1	-5	0	7	6
CSCCC(NC=C1C(=O)OC(C)(C)OC1=O)C(=O)O (stereo not given)	-56	i	-1	-12	-19	10	0	1
COc1ccc(C)cc1NC(=O)C(OC(=O)c1cc(C)oc1C)c1ccccc1 (stereo not given)	27	i	-6	6	1	-8	-1	3
COc1ccc(-c2coc3c(C(=O)Nc4cccc(NS(C)(=O)=O)c4)cccc23)c(C)c1	19	x	x	x	-19	x	-5	-15
O=C(Nc1ccc(F)c(Cl)c1)[C@@H]1O[C@H](CO)[C@H](O)[C@H](O)[C@H]1O	2	x	x	x	-2	x	4	3
